Bioassay records (PubChem)
VACV mCherry inh: qHTS for Stage-Specific Inhibitors of Vaccinia Orthopoxvirus: mCherry Reporter Primary qHTS; Vaccinia virus mCherry reporter infection, fluorescence; about a quarter of the inactives have no number; Potency, µM (series often up to 36.5 µM), inactives show top-dose activity change, negative = inhibition, usual class: inhibitors; hit rate 0.63% among 310,000; active = well fitted inhibition curve with a large enough effect; inconclusive = small, poorly fitted or top-dose-only effect; inactive = no such curve, though single readings can be large or run the other way; tested in A549 cells; also: nearly all actives have a fitted effect of over 35% in size; inactives centre near -10
VACV Venus inh: qHTS for Stage-Specific Inhibitors of Vaccinia Orthopoxvirus: Venus Reporter Primary qHTS. Vaccinia virus Venus reporter expression, fluorescence. Potency, µM (highest dose often 36.5 µM), inactives show at the highest dose activity change, negative = inhibition, hits mostly inhibitors. hit rate 0.46% among 330,000; active means well fitted inhibition curve with a large enough effect; inconclusive means small, poorly fitted or top-dose-only effect; inactive means no such curve, though single readings can be large or run the other way; tested in A549 cells; also: nearly all actives have a fitted effect of over 30% in size; inactives centre near -10
* = called active by the depositor; i = inactive; ? = inconclusive; . = not tested or not shown; & = joins results of further samples; [ ] = dose if it differs, or a comment. % is scaled to controls: 0 for no effect and ±100 for the full control effect; potency is read from the fitted curve at half-maximal effect.

SMILES | VACV mCherry inh | VACV Venus inh
CCN(C[C@H]1N[C@@](C)(C(=O)OC)[C@H]2C(=O)N(C)C(=O)[C@@H]12)C(=O)Nc1ccccc1 | i | -4%
CCC(NS(=O)(=O)c1c(C)[nH]c(=O)[nH]c1=O)C12CC3CC(CC(C3)C1)C2 (centres undefined) | -26% | -12%
Cc1cc(NC(=O)CSc2nnnn2C2CCCC2)no1 | -9% | -22%
CC1=C(c2ccc(C)c(C)c2)S(=O)(=O)N=C1N1CCC(C(=O)Nc2cccc(F)c2)CC1 | -15% | -17%
CCCS(=O)(=O)N1CCC(C(=O)NCCN(C)Cc2ccccc2)CC1 | . | -22%
CC(C)Oc1ccc(CN2CCC2(C)C(=O)Nc2cccc3cccnc23)cc1 (centres undefined) | i | -7%
CCOC(=O)N1CCC(NC(=O)C2CCCN(C(=O)N3CCOc4ccccc43)C2)CC1 (centres undefined) | . | -22%
COc1ccc(OC)c(/C=C2\SC(=S)N(NS(=O)(=O)c3ccc(C)cc3)C2=O)c1 | i | 1%
CCOc1ccc2c(c1)sc(=NC(=O)C1CC1)n2C | -2% | -7%
Cc1oc(-c2ccc(-c3ccccc3)cc2)nc1CN(CCO)C(C)C | i | -13%
Cc1nc(N2CCN(C)CC2)c2nnn(Cc3ccccc3)c2n1 | i | -14%
O=C(NC1CCCN(CCc2ccccc2)C1)C1CCCC1 (centres undefined) | -2% | -8%
CC(=O)Nc1nc(-c2ccc(Br)s2)cs1 | . | -13%
Oc1ccc(/C=N/Nc2ccc3ccccc3c2)c(O)c1 | i | -7%
CN(C)S(=O)(=O)c1cccc(-c2cn3cccnc3n2)c1 | 10% | 6%
O=C(CNC(=O)c1cccnc1)N/N=C/c1cc(Br)c(O)c(Br)c1 | -2% | -1%
O=C(CN1CCCC1c1cccs1)N1CCN(S(=O)(=O)c2ccccc2)CC1 (centres undefined) | -22% | -16%
CS(=O)(=O)N(CC(=O)N1CCc2ccccc2C1)c1ccc2c(c1)OCO2 | . | -17%
CC1=NN(C(=O)COc2ccccc2C)C(O)(c2ccc(Cl)cc2)C1 (centres undefined) | -8% | -3%
CN(Cc1ccccc1)S(=O)(=O)c1ccc(Cl)c(C(=O)N2CCC(C(N)=O)CC2)c1 | i | -11%
CCn1c(O)c(/C=N/NC(=O)c2ccccc2)c(=O)n(CC)c1=S | -8% | -9%
Cc1cccc2c(C(=O)O)cc(-c3cccnc3)nc12 | 6% | 0%
CC(CC(=O)Nc1ccc(Br)cc1F)S(=O)(=O)c1ccc2c(c1)NC(=O)CO2 (centres undefined) | -2%&-11% | -20%&-12%
O=C(O)Cn1c(=O)c2c3c(sc2n(Cc2ccc(F)cc2)c1=O)CCCC3 | -11% | -12%
O=C1C2C(C(=O)N1c1ccc3c(c1)OCO3)C1C=CC2C12CC2 (centres undefined) | -13% | -15%
CCOC(=O)N1CCC(N2CCCC(C(=O)c3cccc(OC(C)C)c3)C2)CC1 (centres undefined) | -26% | -19%
CCNS(=O)(=O)c1ccc(CCC(=O)Nc2ccccc2)cc1 | 3% | -2%
Cc1nc(SCC(=O)NC2CCCCC2C)nc(C)c1C (centres undefined) | 0% | -4%
COc1ccc(N=Cc2c(O)n(-c3ccc(OC)cc3)c(=O)c3ccccc23)cc1 | -9% | -26%
O=C(N/N=C/c1ccc([N+](=O)[O-])cc1)c1c[nH]c2ccccc12 | -20% | -18%

The last seven compounds of the part before come first, to join the parts:
SMILES | VACV mCherry inh | VACV Venus inh
O=C(O)Cn1c(=O)c2c3c(sc2n(Cc2ccc(F)cc2)c1=O)CCCC3 | -11% | -12%
O=C1C2C(C(=O)N1c1ccc3c(c1)OCO3)C1C=CC2C12CC2 (centres undefined) | -13% | -15%
CCOC(=O)N1CCC(N2CCCC(C(=O)c3cccc(OC(C)C)c3)C2)CC1 (centres undefined) | -26% | -19%
CCNS(=O)(=O)c1ccc(CCC(=O)Nc2ccccc2)cc1 | 3% | -2%
Cc1nc(SCC(=O)NC2CCCCC2C)nc(C)c1C (centres undefined) | 0% | -4%
COc1ccc(N=Cc2c(O)n(-c3ccc(OC)cc3)c(=O)c3ccccc23)cc1 | -9% | -26%
O=C(N/N=C/c1ccc([N+](=O)[O-])cc1)c1c[nH]c2ccccc12 | -20% | -18%
COC(=O)c1cc(NC(=O)CN(c2cccc(OC)c2)S(=O)(=O)c2ccccc2)ccc1Cl | ? | ?
Cc1cc(C)n2nc(C(=O)N3CCCC(N4CCN(c5ccccc5C)CC4)C3)cc2n1 (centres undefined) | ? | -18%
Cc1cc(C)nc(N/N=C/c2ccccc2OCC(=O)O)n1 | i | -5%
CCOc1ccc(CN(C)Cc2cc(=O)oc3c(C)c(C)ccc23)cc1OC | -12% | -20%
CC1(C)C(=O)C=C[C@@]2(C)C1C=C[C@@]1(C)C2CC[C@@]2(C)C(c3ccoc3)OC(=O)C3OC312 (some centres undefined) | -9% | -22%
CCOC(=O)C(Cc1ccccc1)NC(=O)CCc1c(C)nc2c(c(C)nn2-c2ccc(C)c(C)c2)c1C (centres undefined) | 0% | 0%
COCCNC(=O)c1cc2c(s1)-c1ccc(Cl)cc1SC2 | -21% | ?
N/C(=N\OC(=O)Oc1ccccc1)c1ccc(Br)cc1 | -22% | -6%
CCn1c(CNC(=O)C2CCCCC2)cc2ccccc21 | i | -4%
O=C1CC2(CCOCC2)Oc2ccc3ccccc3c21 | -14% | -23%
Cn1c(CCNC(=O)c2cccs2)n[nH]c1=S | -3% | -5%
CCN(Cc1ccccc1)C(=O)c1sc2nc3n(c(=O)c2c1C)CCCC3 | 21% | 8%
CC(C)NC(=O)COc1cccc2ccccc12 | 2% | -2%
CCN(CC)C(=O)C12CC3CC(CC(Cl)(C3)C1)C2 | i | -6%
CCOc1ccccc1NC(=O)C(=O)c1cc(C)n(-c2ccc(F)cc2)c1C | -15% | -2%
C=CCSc1nc2c(c(=O)[nH]c(=O)n2C)n1C/C=C(/C)Cl | -16% | -9%
O=C(CCC(=O)OCc1ccc([N+](=O)[O-])cc1)Nc1ccccc1Cl | i | -8%
CCOC(=O)c1ccc(NC(=O)c2cc3c(n(-c4ccc(C)cc4)c2=O)CC(C)(C)CC3=O)cc1 | -1% | -7%
O=C(/C=C/c1cccc(F)c1)NCCCn1ccnc1 | 2% | 1%
CCN1CCN(C(=O)c2ccccc2NC(=O)c2ccc(Cl)cc2)CC1 | -1% | -14%

Four records picked at random from those above:
SMILES | VACV mCherry inh | VACV Venus inh
CCN(CC)C(=O)C12CC3CC(CC(Cl)(C3)C1)C2 | i | -6%
O=C1C2C(C(=O)N1c1ccc3c(c1)OCO3)C1C=CC2C12CC2 (centres undefined) | -13% | -15%
CCn1c(O)c(/C=N/NC(=O)c2ccccc2)c(=O)n(CC)c1=S | -8% | -9%
Cc1cc(C)n2nc(C(=O)N3CCCC(N4CCN(c5ccccc5C)CC4)C3)cc2n1 (centres undefined) | ? | -18%

Additional results follow.
SMILES | VACV mCherry inh | VACV Venus inh
O=C(NCc1ccco1)c1ccc(COc2ccccc2Cl)cc1 | . | ?
Cc1ccc(N2CCN(S(=O)(=O)c3ccc4oc(=O)c5ncn(C)c5c4c3)CC2)c(C)c1 | -28% | -21%
Cc1cc(C)cc(OCC(=O)N(Cc2ccc(N(C)C)cc2)C2CCS(=O)(=O)C2)c1 (centres undefined) | -15% | -4%
COCCCN1Cc2ccccc2C1=N | -14% | 2%
CCNc1nnc(-c2ccccc2OC)s1 | -11% | -8%
CN(CC(=O)Nc1ccccc1Br)C(=O)c1cccnc1Nc1cccc(C(F)(F)F)c1 | -14% | -24%
NC(=S)n1[nH]c(-c2ccc([N+](=O)[O-])cc2)c(N=Nc2cccc(Cl)c2)c1=O | -29% | -25%
CC(CCc1ccccc1)NC(=O)CN1CCN(c2ccccc2)CC1 (centres undefined) | i | 1%
CCc1ccc(OCC(=O)N(Cc2ccc(Cl)cc2)C2CCS(=O)(=O)C2)cc1 (centres undefined) | -9% | 1%
CCN(C(C)=O)c1ccc(Oc2nc(OC)cc(OC)n2)cc1 | i | 4%
COc1ccc(CCNC(=O)CCCCn2c(=O)c3ccccc3n(Cc3ccc(F)cc3Cl)c2=O)cc1OC | -30% | -24%
CCC1(C)Cc2nc3[nH]c(=S)n(-c4ccccc4C)c(=O)c3cc2CO1 (centres undefined) | -2% | 0%
CCOC(=O)N1CCN(S(=O)(=O)c2ccc(C)c(C)c2C)CC1 | . | -19%
COc1cccc(Nc2nc(-c3cccc(N4C(=O)c5ccccc5C4=O)c3)cs2)c1 | -16% | -17%
CCN(CC)C(=O)Cn1cc(C(=O)C(=O)NCC2COc3ccccc3O2)c2ccccc21 (centres undefined) | -5% | -9%
O=C(C(=O)N1CCC(Cc2ccccc2)CC1)c1ccccc1Br | ? | -7%
CCOC(=O)C1CCCN(C(=O)c2cccc(NC(=O)C(CC)CC)c2)C1 (centres undefined) | -17% | -15%
COc1cc(OC)c(NC(=O)CNC(=O)Cn2ccc3ccccc3c2=O)cc1Cl | -4% | -9%
COc1ccc2nc(C)c(C(=O)NN)cc2c1 | i | -7%
COc1ccc(C(=O)Oc2cccc(Nc3ncnc4ccccc34)c2)cc1OC | ? | -24%
O=C(CSc1ccc(-c2ccncc2)nn1)c1ccc(Cl)cc1 | -4% | -10%
CCOc1ccc(S(=O)(=O)NCCC(=O)NCC2(N3CCCCC3)CCCCC2)cc1 | i | -16%
O=C(Nc1cc(Cl)ccc1N1CCOCC1)c1ccc(N2CCCC2=O)cc1 | -9% | -6%
O=C(NCc1cccs1)C(=O)c1cn(CC(=O)N2CCCC2)c2ccccc12 | -3% | -12%
COc1cc(/C=C(\C#N)c2nc3ccccc3[nH]2)ccc1OC(=O)c1ccco1 | -12% | 35%[activator]
COCc1nc2oc3ccc(C)cc3c(=O)c2cc1C(=O)OC | -5% | -16%
CCn1cnc2c1c(=O)n(Cc1nnc3n1-c1ccccc1SC3)c(=O)n2Cc1ccccc1 | . | -17%
Nc1nnc(CSCc2ccccc2Cl)s1 | -10% | -3%
O=C(O)CC(NC(=O)COc1ccc(Cl)cc1Cl)C(=O)O (centres undefined) | -3% | -2%
Cc1ccc(NS(=O)(=O)c2ccc(Br)s2)nc1 | -16% | -6%
CC(=O)Nc1ccccc1-c1nc2ccccc2nc1OCC(=O)c1ccc2ccccc2c1 | i | -8%
COc1cccc(NC(=O)C(c2ccccc2)N2CCCCC2)c1 (centres undefined) | -12% | -4%
COc1ccc(C2CC2/C(=N/O)c2ccccc2)cc1 (centres undefined) | -3% | -8%
Cn1c(=O)c(=O)n(C)c2cc(N3CCCC3)c(NC(=O)c3ccccc3F)cc21 | -9% | -11%
Clc1ccc(N2CCN(c3ccnc(Cl)n3)CC2)cc1 | ? | -18%
COc1ccc(N2CCN(C(CNC(=O)c3ccc(OC)c(OC)c3)c3cccnc3)CC2)cc1 (centres undefined) | -1% | -10%
COc1ccc(CCNC(=O)CSC2=NS(=O)(=O)c3ccccc3N2)cc1OC | i | -18%
Cn1c(SCC(N)=O)nc2c([nH]c3ccccc32)c1=O | -11% | -17%
O=C(Nc1ccc(Cl)c(Cl)c1)c1ccc(Cl)c(Cl)c1 | i | -26%
CC(=O)c1sc(N2C(=O)c3oc4ccccc4c(=O)c3C2c2ccc(C)cc2)nc1C (centres undefined) | -2% | 9%

In a second layout: three of the compounds above.
Structure,VACV mCherry inh,VACV Venus inh
CN(Cc1ccccc1)S(=O)(=O)c1ccc(Cl)c(C(=O)N2CCC(C(N)=O)CC2)c1,i,-11%
CCn1c(O)c(/C=N/NC(=O)c2ccccc2)c(=O)n(CC)c1=S,-8%,-9%
Cc1cccc2c(C(=O)O)cc(-c3cccnc3)nc12,6%,0%

Next section.
SMILES | VACV mCherry inh | VACV Venus inh
CCCCNc1nc2c(c(=O)n(C)c(=O)n2C)n1CC(O)COc1ccccc1C (centres undefined) | i | -8%
CN(C)c1cc(N/N=C/c2ccccc2C(F)(F)F)nc(N(C)C)n1 | ? | -2%
CCn1cc(C(=O)N2CCN(c3ccccc3)CC2)c(=O)c2cc(S(=O)(=O)N3CCCC3)ccc21 | -15% | -2%
N#CC1=C2SCC(O)(c3ccccc3)N2C(=O)CC1c1ccccc1 (centres undefined) | . | ?
Nc1nnc(SCC(=O)OCc2ccc(F)cc2)s1 | -18% | -12%
COC1CC(OC2CC[C@@]3(C=O)C4CC[C@]5(C)C(C6=CC(=O)OC6)CC[C@@]5(O)C4CC[C@]3(O)C2)OC(C)C1O (some centres undefined) | 2.5µM* | 0.28µM*
CC(NC(=O)C(=O)NCCCn1ccnc1)c1ccccc1 (centres undefined) | i | -9%
O=C(O)C1CCN(S(=O)(=O)c2ccc(N3CCCC3C(=O)O)c([N+](=O)[O-])c2)CC1 (centres undefined) | -12% | -6%
O=C(CSc1nn(-c2ccccc2)c(=S)s1)Nn1cnnc1 | i | -13%
CC(C)[C@H](CO)NC(=O)[C@H]1O[C@@H](n2ccc(N)nc2=O)[C@H](O)[C@@H]1O | i | 2%
CN1OC[C@@H]2CN(S(=O)(=O)c3cccc(C(F)(F)F)c3)[C@H](c3ccc(-c4cc5ccccc5o4)cc3)C[C@@H]21 | -23% | ?
CC(c1nc2ccccc2c(=O)[nH]1)N(C)c1ccc2ccccc2c1 (centres undefined) | -16% | -4%
